PrP 5UTR inh: inhibition of PrP 5' UTR reporter expression | AID 488862 | inhibition, % (test concentration not listed) | cell-based PrP 5' UTR mRNA reporter, plate reader | 0.35% of 340,000 active;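 active = every replicate at 50% or more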;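 note: 0 = median of the neutral control wells; tested in H4 reporter cells; numbers are from one replicate; inactives centre near -14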
Autofluor counter: counter-screen for toxin protease inhibitors: compound fluorescence | compound autofluorescence counterscreen, microsphere flow cytometry; hits give high values | 3.1% of 360,000 active | fluorescence intensity (concentration not given with the values);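 active = at least 3 SD above the mean of all compounds, about 16000 in these data; inconclusive = too few beads counted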;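 note: 100 nL of 1 mM stock went into each well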
Sa ugtP lethal: kills S. aureus RN4220 lacking UgtP | S. aureus RN4220 ugtP deletion, OD600 growth, 16 h; some inactives read as strong as hits | growth inhibition, % (test concentration not listed) | 0.54% of 330,000 active | AID 1259309;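 active = z-score under -3 and OD600 up to 0.15 on both plates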;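 note: plate controls were untreated wells for no effect and antibiotic for full effect; wells of about 80 µL received 100 nL stock; the first replicate is given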
Sa RN4220 lethal: S. aureus RN4220 growth inhibition | inhibition, % (no concentration beside the values) | OD600, 16 h | 0.33% of 330,000 active;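 active = z-score of -3 or lower and OD600 up to 0.18 on both plates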;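 note: plate controls were untreated cells for no effect and reference antibiotic for full effect; stock transfer was 100 nL into about 80 µL; one replicate is shown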
Mtb hypoxia inh: inhibitors of hypoxia-regulated fluorescent reporter in Mycobacterium tuberculosis. M. tuberculosis hypoxia-regulated fluorescent reporter, fluorescence. fluorescence inhibition, % (concentration not given with the values). 0.1% of 300,000 active;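 active = 35 to 45% if threefold the growth effect, above 45% if 1.5-fold the growth effect; inactive = the rest, general growth blockers included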;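 note: wells of about 50 µL received 100 nL stock; 0% = vehicle wells and 100% = reference inhibitor wells; whole bacteria with a GFP reporter of the hypoxia response; strong numbers were not always called active; many hits fall short of the cut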
BJeLR lethal: kills HRASV12-expressing BJeLR cells. BJeLR (HRASV12) viability, CellTiter-Glo ATP luminescence, 48 h; reference of the scale not given here. inhibition, % (test concentration not listed). 0.17% of 300,000 active;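 active = replicate mean above 50%; inconclusive = above 50% but judged a plate artefact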;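 note: 50 nL library stock added to about 25 µL; numbers are from one replicate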
Mtb hypoxia inh growth: also measured in Mtb hypoxia inh; calls as there; growth inhibition, %; measured here: M. tuberculosis growth (absorbance);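 0% = vehicle and 100% = reference antibiotic; read after six days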
The depositor's hits bear a star; ? = inconclusive; . = not tested or not shown; & = joins results of further samples.

SMILES	PrP 5UTR inh	Autofluor counter	Sa ugtP lethal	Sa RN4220 lethal	Mtb hypoxia inh	Mtb hypoxia inh growth	BJeLR lethal
NC(=NOC(=O)CCCC(=O)O)c1ncc(C(F)(F)F)cc1Cl	.	.	11	2.9	9	9	.
COc1ccccc1S(=O)(=O)Cc1ccc(C(=O)NCc2cccnc2)o1	-6	5094	-3	3.0	.	.	-1
CN(C)c1ccc(/C=C/C(=O)c2ccccc2)cc1[N+](=O)[O-]	-50	10314	12	8.4	2	4	-1
CC(=O)c1cccc(NC(=O)C2CCN(S(=O)(=O)c3c(C)n[nH]c3C)CC2)c1	-12	3609	0	-0.6	.	.	-8
CS(=O)(=O)N1CCC(C(=O)NCC2CCCO2)CC1 (configuration not stated)	-24	9558	2	-1.4	-2	-9	0
CCCCCc1nnc(NC(=O)Cc2ccc([N+](=O)[O-])cc2)s1	-38	4431	7	5.6	-2	5	2
CC1=C(C(=O)OC(C)C)C(/C=C/c2ccccc2)NC(=O)N1 (configuration not stated)	-9	2820	.	.	.	.	11
C[C@H](NS(=O)(=O)c1ccccc1)C(=O)N1CCN(C(c2ccccc2)c2ccccc2)CC1	-2	2899	17	0.5	10	5	.
O=C(NCCCN1CCOCC1)c1coc2ccccc2c1=O	-8	3054	-4	2.2	-3	3	-8
CC1CCCCN1C(=O)NC1CC(=O)N(c2ccc3c(c2)OCCO3)C1 (configuration not stated)	-12	?	11	3.8	0	-7	10
Cc1ccc(N=Cc2sc(O)c3ccccc23)c(C)c1	-107	9519	0	5.3	6	13	-2
COc1ccc(C(CC(=O)N2CCOCC2)C(C)C)cc1 (configuration not stated)	-5&-15	4541	-1	4.0	.	.	12
Cc1ccc(NC(=O)c2cc(S(=O)(=O)N3CCOCC3)cn2C)cc1F	12	5792	-3	-12	-3	-2	1
CC(=NCC1CCCO1)C1=C(O)CC(C)(C)CC1=O (configuration not stated)	-7	2846	-8	-3.3	.	.	-3
COc1ccc(N2C(=O)c3cccc4cc(Br)cc(c34)C2=O)cc1	3	2472	6	5.3	-2	-11	.
CCCN(CCC)S(=O)(=O)c1ccc(C(=O)N2CCCc3ccccc32)cc1	-15	22837*	-8	15	12	12	3
Cc1ccc(C2C(C(=O)c3cc4ccccc4o3)=C(O)C(=O)N2CCN2CCOCC2)o1 (configuration not stated)	-10	3313	7	8.1	-2	-3	-14
COc1ccc(NC(=O)c2ccc(Br)c(S(=O)(=O)N3CCOCC3)c2)cc1	-6	4264	3	1.1	-6	8	3
C=CCn1c(SCC(=O)N2CCCCC2)nc(O)cc1=O	-18	13208	-3	3.3	3	6	4
O=C(Cc1cccs1)NCCc1ccc(F)cc1	-6	3677	11	-3.0	8	12	1
O=C(c1ccc(F)cc1)N1CCN(c2ccc([N+](=O)[O-])c(N3CCOCC3)c2)CC1	-52	2189	6	6.6	0	3	-2
O=C(Cc1ccccc1F)NNC(=O)c1ccncc1	1	4742	3	5.6	5	-10	-2
COc1ccc(C2C(C(=O)N3CCC4(CC3)OCCO4)CC(=O)N2c2ccc(OC)cc2)cc1 (configuration not stated)	-5	3911	-3	5.3	1	6	.
Cc1nc2cc(NC(=O)NCc3ccco3)ccc2o1	-10	7240	3	1.1	2	-2	0
CCC(C(=O)OCC(=O)Nc1cccc(OC)c1)c1ccccc1 (configuration not stated)	-11	2564	-2	-1.9	-3	5	5
CCc1c(O)nc(SCC(=O)N2CCc3cc(OC)c(OC)cc3[C@@H]2C)[nH]c1=O	-20	5973	5	1.0	.	.	0
Cc1nc(-c2ccc(F)cc2)c(CC(=O)Nc2ccc(C)c(S(=O)(=O)N3CCOCC3)c2)s1	-15	6255	.	.	.	.	7
CSc1nncn1N=Cc1cc(Cl)ccc1F	.	.	-2	7.5	7	6	.
O=c1[nH]c(O)c(N=Nc2ccc(Cl)c(S(=O)(=O)Nc3ccccc3Cl)c2)c(=O)[nH]1	-9	3389	4	6.0	13	9	.
COC(C[C@@H](O)[C@@H](C)[C@@H](O)COCc1ccccc1)OC	3	4079	.	.	.	.	-11
Cc1nnc(SCC(=O)N/N=C/c2cn(-c3ccccc3)nc2-c2ccc(F)cc2)n1-c1ccccc1	-5	3490	.	.	.	.	-1
COc1cc(/C=C2/NC(=O)N(Cc3ccccc3F)C2=O)cc(OC)c1OC	-7	4828	-2	11	12	12	-5
CCc1cc(C(=O)Cc2cnn(-c3ccccc3)c2)c(O)cc1O	-13	16047	-35	6.8	3	2	-5
O=C(Cc1ccc(S(=O)(=O)N2CCOCC2)s1)N1CCN(c2cccc(C(F)(F)F)c2)CC1	-2	5785	-4	1.6	-2	4	2
Cc1cccc(NC(=O)c2ccc3c(c2)C(=O)N(c2ccccn2)C3=O)c1C	-14	4770	3	2.9	-3	-3	14
Cc1cccc(C(=O)Nc2nnc(-c3cccnc3)o2)c1	-15	3443	4	2.5	0	-1	18
CCc1cc2c(=O)nc3n(c2s1)Cc1ccccc1/C3=C(/O)c1ccccc1Cl	-15	2535	.	.	.	.	-13
Cc1ccc(-c2nc(CS(=O)CC(=O)NC3CCCCC3)c(C)o2)cc1 (configuration not stated)	-34	5902	1	-0.7	4	1	1
O=C(CCc1ccc(Oc2cc([N+](=O)[O-])cc([N+](=O)[O-])c2)cc1)N1CCCCC1	-17	4486	8	-1.1	.	.	-4
COc1ccc(C(=O)Nc2cccc(-c3nc4ncccc4o3)c2C)cc1	-5	2486	.	.	.	.	4
O=C(CC(NC(=O)c1ccccc1Cl)c1ccccc1)NC1=NCCS1 (configuration not stated)	-26	4752	-4	-4.1	-4	-1	-9
CC1(C)C(c2cccs2)=NC(c2ccccc2)N1O (configuration not stated)	-32	10069	4	7.2	7	10	-5
CC1(C)CC(=O)CC(=O)C1=NNc1c(Cl)cc(Cl)cc1Cl	.	.	-1	3.5	10	13	.
CC(=O)OC(C(=O)NCc1ccc(F)cc1)c1ccccn1 (configuration not stated)	-8	2812	-1	9.2	.	.	-3
CCOc1cc(/C=C2/COc3ccccc3C2=O)ccc1OCC(=O)N(C)C	-23	3228	-3	12	18	9	.
CCn1nc(C)c(CNC(=O)c2cc(COc3ccccc3SC)on2)c1C	-11	4706	-4	-5.8	0	3	1
CC1=CC(=O)N(c2ccc(C)cc2)C1c1ccc(Cl)cc1 (configuration not stated)	-1	1958	-1	16	10	6	0
COc1ccc(Cl)cc1NC(=O)CSc1nnc(CNC(=O)c2ccco2)o1	-20	2027	7	-1.5	2	5	-2
O=C(CCc1ccc(O)c(O)c1)NNC(=S)NCCc1ccccc1	-5	2156	2	4.8	7	0	-3
COC(=O)c1ccccc1CCC(C)=O	-9	2858	.	.	.	.	6
Cc1cc(NC(=O)Nc2cccc(Cl)c2)n(C(C)(C)C)n1	-52	5583	2	6.9	-3	2	-8
Cc1nc(SCC(=O)Nn2c(-c3ccccc3)nc3ccccc3c2=O)n[nH]1	-26	3952	3	-1.6	.	.	1
COc1ccccc1NC(=O)CSC1=NC(=O)C(NC(C)=O)C(=O)N1 (configuration not stated)	-11	2523	1	3.3	.	.	6
COc1ccc(-c2cc(C(F)(F)F)n3ncc(C(=O)NCc4ccco4)c3n2)cc1	-2	2658	7	-0.3	.	.	0
CCC(C(=O)NC1CCCC1)N(C(=O)Cn1nnc(-c2ccc(OC)c(OC)c2)n1)C1CCCCC1 (configuration not stated)	-11	16428*	12	-0.3	2	1	-8
COc1ccc(NC(=O)c2noc(C(C)C)c2[N+](=O)[O-])cc1	-3	1901	14	8.7	-3	11	1
O=C(CCn1ccc2cc(S(=O)(=O)N3CCCC3)ccc21)NCc1ccccc1F	-14	5438	3	1.1	-3	-6	-1
O=C(NC1(C(F)(F)F)NC(=O)N(Cc2ccco2)C1=O)c1cccs1 (configuration not stated)	-4	20774*	9	3.3	0	12	1
Cc1ccc(NC(=O)c2ccc(NC3=NC4CS(=O)(=O)CC4S3)cc2)cc1 (configuration not stated)	-17	5716	-1	3.2	15	3	-10
CCCCNc1nc(=S)n(-c2ccccc2)c(C)c1C(C)=O	-8	2682	-2	0.1	-4	3	-3
Other compounds:
SMILES	PrP 5UTR inh	Autofluor counter	Sa ugtP lethal	Sa RN4220 lethal	Mtb hypoxia inh	Mtb hypoxia inh growth	BJeLR lethal
COC(=O)c1ccc(OC(=O)C2CSC3(C)CCC(=O)N23)cc1 (configuration not stated)	-14	?	3	4.0	-5	0	9
CC1CCC2(CC1)NC(=O)N(NC(=O)c1cccs1)C2=O (configuration not stated)	6	5457	-1	4.1	1	1	.
CCNC(=O)CC1C(=O)N(C)C(=S)N1NC(=O)c1ccc(Cl)cc1 (configuration not stated)	-18	2341	-5	3.6	-11	6	14
Cc1ccc(NC(=O)Nc2ccc3c(c2)nnn3C)cc1C	-57	4254	6	2.2	-3	0	-5
CCOC(=O)N1CCC(NC(=O)c2cc(C(=O)Nc3ccc(S(=O)(=O)N4CCOCC4)cc3)ccc2CO)CC1	-30	3965	.	.	.	.	5
COC(=O)C1=C(C(=O)OC)[C@@H]2Nc3ccccc3[C@@]23C[C@@H](C(=O)OC)N=C3N1	8	2979	.	.	.	.	5
O=C(Cn1c(NCCCO)nc2ccccc21)c1cccs1	3	5155	4	3.8	17	10	2
CCCCCCCC(C)=NNC(=O)CC(=O)NCCc1ccccc1	.	.	3	0.3	3	3	.
CCNc1nc(NC(C)C)nc(N(C#N)C(C)C(=O)N(C)C)n1 (configuration not stated)	7	3299	9	9.1	.	.	6
Cc1ccc(NC(=O)Cc2ccc(F)cc2)cc1	-40	8649	2	1.7	11	12	0
CCOc1ccc(C(=O)Nc2cccc(C)n2)cc1	-8	4816	8	-0.9	.	.	14
Cc1ccc(-c2cc(C(=O)NCCc3ccccn3)c3ccccc3n2)c(C)c1	-7	2563	17	-1.8	7	1	-10
Cc1cccc(C=Nc2sc3c(c2C#N)CCN(Cc2ccccc2)C3)c1O	.	.	6	8.4	6	12	.
Cc1c(NC(=O)CSc2nnc(N)s2)c(=O)n(-c2ccccc2)n1C	-23	8156	9	4.0	18	1	4
COc1ccc(C=NNC(=O)c2ccc(COc3ccccc3Cl)o2)c(OC)c1C	.	.	16	6.4	1	4	.

Complete entries, quoted from the list. Values in the order: PrP 5UTR inh | Autofluor counter | Sa ugtP lethal | Sa RN4220 lethal | Mtb hypoxia inh | Mtb hypoxia inh growth | BJeLR lethal
CCOc1ccc(C(=O)Nc2cccc(C)n2)cc1 across the screens: -8 | 4816 | 8 | -0.9 | . | . | 14
COc1ccc(C=NNC(=O)c2ccc(COc3ccccc3Cl)o2)c(OC)c1C across the screens: . | . | 16 | 6.4 | 1 | 4 | .
Cc1c(NC(=O)CSc2nnc(N)s2)c(=O)n(-c2ccccc2)n1C across the screens: -23 | 8156 | 9 | 4.0 | 18 | 1 | 4
CCNC(=O)CC1C(=O)N(C)C(=S)N1NC(=O)c1ccc(Cl)cc1 (configuration not stated) across the screens: -18 | 2341 | -5 | 3.6 | -11 | 6 | 14
O=C(Cn1c(NCCCO)nc2ccccc21)c1cccs1 across the screens: 3 | 5155 | 4 | 3.8 | 17 | 10 | 2

Further records:
SMILES	PrP 5UTR inh	Autofluor counter	Sa ugtP lethal	Sa RN4220 lethal	Mtb hypoxia inh	Mtb hypoxia inh growth	BJeLR lethal
COC(=O)C1CC2=C(CCCC2=O)N(c2ccccc2)C1=O (configuration not stated)	-18	2829	6	3.9	-3	-4	.
O=C(Nc1ccc(Cl)cc1)OC(CN1CCCCC1)C(F)(F)F (configuration not stated)	-15	3749	1	-1.7	.	.	1
COCCCN=C1NN=C(c2cc(C)n(Cc3ccccc3Cl)c2C)CS1	43	4081	-4	-11	-10	1	30
O=C(O)CP(=O)(O)c1ccc(Cl)cc1	-5	2789	8	-2.0	.	.	11
O=C(CSCc1ccc(Cl)cc1)N/N=C/c1ccc(Cl)cc1Cl	-30	4488	.	.	.	.	4
CC(O)Cc1cn(CC(=O)N2CCN(C(=O)OC(C)(C)C)CC2)nn1 (configuration not stated)	-9	4140	-1	1.3	-3	-3	-3
COc1ccc(C(CNC(=O)c2ccc(NS(=O)(=O)c3ccc(F)c(C)c3)cc2)N2CCOCC2)cc1 (configuration not stated)	-25	?	1	-0.3	-5	6	-3
CC1CCC(NC(=O)C2CCN(S(=O)(=O)c3cccc4nonc34)CC2)CC1 (configuration not stated)	-36	3648	8	2.3	17	4	-4
CCn1ccnc1CN(C)C(=O)c1cc(COc2ccc(OC)c3ccccc23)on1	-23	5215	-16	-1.4	0	0	2
CC1Cn2c(nnc2C23CC4CC(CC(C4)C2)C3)S1 (configuration not stated)	-54	7850	-1	6.6	4	6	4

Rows were taken by chance, and some 4.1% of all compounds hit somewhere here.
